# Screens (PubChem BioAssay)
# RecA intein inh: inhibitors of M. tuberculosis RecA intein splicing. AID 2221. P9WHJ3. 290,000 compounds, 0.75% hits. inhibition, %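 (about 9 µM by stock and volumes)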. cell-free RecA intein splicing, fluorescence; in the data active means inhibition above about 30%; inconclusive means no clear call, values can overlap the other calls;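 further: 0% = vehicle wells and 100% = reference inhibitor control wells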
# Target sequence (P9WHJ3 whole entry, looked up): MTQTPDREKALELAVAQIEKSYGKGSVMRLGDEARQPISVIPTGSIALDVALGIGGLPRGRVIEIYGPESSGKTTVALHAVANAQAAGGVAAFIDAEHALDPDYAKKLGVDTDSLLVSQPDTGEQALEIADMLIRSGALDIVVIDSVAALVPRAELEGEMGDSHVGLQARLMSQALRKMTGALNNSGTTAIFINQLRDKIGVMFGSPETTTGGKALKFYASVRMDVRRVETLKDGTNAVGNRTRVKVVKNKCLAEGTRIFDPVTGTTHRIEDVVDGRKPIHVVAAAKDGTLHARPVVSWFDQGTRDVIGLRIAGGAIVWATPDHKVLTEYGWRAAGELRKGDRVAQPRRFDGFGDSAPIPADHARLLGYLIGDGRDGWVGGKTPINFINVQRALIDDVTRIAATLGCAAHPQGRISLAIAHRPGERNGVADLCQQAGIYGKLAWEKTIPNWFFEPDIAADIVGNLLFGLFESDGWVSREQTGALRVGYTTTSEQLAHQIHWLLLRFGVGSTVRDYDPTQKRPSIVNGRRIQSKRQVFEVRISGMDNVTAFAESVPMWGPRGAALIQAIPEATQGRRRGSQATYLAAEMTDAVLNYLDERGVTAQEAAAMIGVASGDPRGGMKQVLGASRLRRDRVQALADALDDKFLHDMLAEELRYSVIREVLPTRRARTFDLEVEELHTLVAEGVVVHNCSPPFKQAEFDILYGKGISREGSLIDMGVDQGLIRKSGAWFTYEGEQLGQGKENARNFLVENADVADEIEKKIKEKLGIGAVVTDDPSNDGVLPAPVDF
# Mtb betalactam: beta-lactam sensitization of Mtb H37Rv; AID 434955; inhibition, % at 25 µM; M. tuberculosis H37Rv growth with meropenem, percent inhibition; hits of this screen are not shown here; 330,000 compounds, 0.27% hits;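 active means about 74% or more and at least 40 points above the plate without the antibiotic, then above 30% in a dose series; inconclusive means first-round hits that could not be retested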;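 further: growth measured after seven days incubation then overnight dye step; 0% = bacteria only wells and 100% = bacteria with antibiotic; twin plates without the antibiotic show which effects depend on it; some results filed as inactive read as strong as hits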
# YopH PTP inh: YopH (Yersinia) phosphatase inhibition; fluorescence Ex485/Em525; inhibition, %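 (about 10 µM by stock and volumes)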; 140,000 compounds, 0.16% hits; AID 898;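 active means inhibition of 50% or more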;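 further: controls were vehicle for no effect and minimum signal wells for full effect; inactives centre near -20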
# Mtb H37Rv: M. tuberculosis H37Rv growth inhibitors, H37Rv strain (AID 1626) | 220,000 compounds, 0.95% hits | inhibition, % at 10 µM; hits with a dose series show IC50 in µM | M. tuberculosis H37Rv growth inhibition; higher % means a stronger effect;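 active means confirmed in a dose series; inconclusive means inhibition above 80% but not taken into the dose series; inactive means below 80% or under 30% at every dose of the series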;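 further: bacteria incubated seven days before Alamar blue readout; 0% = bacteria only wells and 100% = bacteria with antibiotic wells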
# Arbovirus inh: arbovirus infection inhibition | AID 1251 | arbovirus infection cell-based antiviral screen | inhibition, % at 10 µM | 200,000 compounds, 0.37% hits;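 active means inhibition from about 30%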;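 further: bluetongue infection of BSR cells; cell survival read as ATP light after 72 h; 0% = infected wells without compound and 100% = uninfected wells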
# Arbovirus inh repeat: also measured in Arbovirus inh; calls as there; inhibition, %; measured here: 10K subset replicate screen; many hits read low in the repeat;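 first of two repeat runs on a subset; 0% = infected and 100% = uninfected wells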
# Starred values were filed as active, the others as inactive; ? = inconclusive; . = not tested or not shown. Only part of the results is shown. The share of hits here may be higher or lower than overall.
SMILES,RecA intein inh,Mtb betalactam,YopH PTP inh,Mtb H37Rv,Arbovirus inh,others
Cc1cc(C(=O)NNC(=O)c2ccc(Cl)cc2Cl)c(C)o1,-0.5,-14,.,.,.,
COCCN(C(=O)Cc1cccs1)c1nnc(-c2ccncc2)s1,-1.0,0,-4,.,3,
CC(C)NC(=S)NC(=O)c1ccc(-c2ccccc2)cc1,-1.6,1,9,16%,21,
Cc1oc(-c2ccc(Cl)cc2)nc1CS(=O)CC(=O)NCc1ccc2c(c1)OCO2 (stereo not given),-1.1,-1,.,.,.,
COc1cccc(N2CCN(C(=O)C3CCCN(S(=O)(=O)c4cnc[nH]4)C3)CC2)c1 (stereo not given),-2.3,0,-8,-12%,8,Arbovirus inh repeat=4
CC(CN1CCCCCC1)C(=O)NN (stereo not given),-0.3,-6,.,-2%,4,
O=C(Nc1ccccc1)c1ccccc1OCc1ccc(S(=O)(=O)N2CCOCC2)cc1,-1.0,-6,.,-4%,1,
CC(C)CNC(=O)COC(=O)CCC(=O)c1cccs1,-1.1,-6,-21,3%,3,
COc1cc(O)sc1C=Nc1ccc(Cl)cc1Cl,-1.0,2,.,1%,-8,
CCC1(OC(=O)c2ccccc2)CC(C)N(C)CC1C (stereo not given),-0.3,-9,.,.,.,
CCn1nnc(NC(=O)CSc2ccc(Cl)cc2)n1,3.0,-3,-24,2%,3,
C=CCNC(=S)Nc1cccc([N+](=O)[O-])c1,-0.3,-2,.,1%,.,
Nn1c(SCC(=O)NC2CCS(=O)(=O)C2)nnc1-c1cccs1 (stereo not given),0.4,-3,.,-6%,.,
CCN(CC)S(=O)(=O)c1ccc(C(=O)OCC(=O)NC2CCCC2)cc1,-1.5,1,.,.,.,
O=C(O)c1ccc(S(=O)(=O)N(Cc2ccccc2)C2CCCCC2)cc1,3.1,-4,.,.,.,
Cc1[nH]n(C)c(=O)c1C(=O)c1c(-c2c(Cl)cccc2Cl)noc1C,77*,3,.,-4%,.,
CCN(CC)CCCNC(=O)c1c(O)c2ccccc2n(Cc2ccccc2)c1=O,4.1,.,-122,-5%,-29,
Cc1ccc(C(=O)Oc2cccc(-n3cnnn3)c2)cc1,6.2,96,.,11%,-2,
O=C(NCC(=O)N(Cc1ccccc1)C(C(=O)NCC1CCCO1)c1ccccc1)c1ccco1 (stereo not given),4.0,-4,.,.,.,
CC(CNC(=O)CCc1nnc(CCC2CCCCC2)o1)c1ccccc1 (stereo not given),4.1,-3,.,-2%,1,
CCn1cc(/C=C(\NC(=O)c2ccccc2OC)C(=O)N2CCN(C)CC2)c2ccccc21,1.5,4,.,.,.,
Cc1cccc(CN2CCN(c3ncccn3)CC2)c1,1.4,100,.,.,.,
Cc1ccc(OCCOc2cccc(/C=N/NC(N)=O)c2)cc1,3.8,1,.,.,.,
CCOC(=O)c1cccc(NC(=O)CN(c2ccc(OC)cc2)S(=O)(=O)c2c(C)noc2C)c1,3.4,0,-21,-2%,-1,
CSc1nnc(N(CCC#N)CCC#N)s1,2.6,-1,-59,-2%,6,
O=C(O/N=C1\CCCc2ccccc21)c1cccs1,0.3,62,.,?,0,
O=C(N/N=C/c1ccc([N+](=O)[O-])o1)C(O)c1ccccc1 (stereo not given),-1.8,100,.,?,.,
CC(=O)C[C@H]1c2cc(C(F)(F)F)ccc2S(=O)(=O)N1C1CCCC1,-0.5,-10,.,1%,.,
OC(CCCN1CCCCC1)(c1ccccc1)c1ccccc1,-0.6,-4,-13,-6%,6,
Cc1cc(C)nc(SCC(=O)Nc2ccc(S(=O)(=O)NCCO)cc2)n1,-0.8,3,-22,1%,-1,
COC(CNS(=O)(=O)c1ccc(S(=O)(=O)NC2CC2)cc1)OC,-1.4,-4,.,.,.,
COc1ccc(OCc2nnc(SCC(=O)N3CCCc4ccccc43)n2-c2ccc(C)cc2)cc1,12,-11,-2,-3%,-33,
Cn1c2c(c(=O)n(C)c1=O)C(c1ccc(Cl)cc1)C(C#N)=C(N)O2 (stereo not given),5.7,5,19,3%,13,
CCCCCCCCC(=O)N/N=C(\C)c1cccnc1,3.3,7,-9,-4%,-1,
CCOc1cc(NC(=O)c2ccco2)c(OCC)cc1NC(=O)COc1ccccc1C,.,18,23,-8%,.,
COc1cc(NC(=O)c2ccccc2)c(OC)cc1NC(=O)Cc1cccs1,2.5,24,.,3%,-11,

# Ordered by formula weight (rising): 19 of the compounds above.
SMILES,RecA intein inh,Mtb betalactam,YopH PTP inh,Mtb H37Rv,Arbovirus inh,others
CC(CN1CCCCCC1)C(=O)NN (stereo not given),-0.3,-6,.,-2%,4,
C=CCNC(=S)Nc1cccc([N+](=O)[O-])c1,-0.3,-2,.,1%,.,
CSc1nnc(N(CCC#N)CCC#N)s1,2.6,-1,-59,-2%,6,
CCCCCCCCC(=O)N/N=C(\C)c1cccnc1,3.3,7,-9,-4%,-1,
O=C(N/N=C/c1ccc([N+](=O)[O-])o1)C(O)c1ccccc1 (stereo not given),-1.8,100,.,?,.,
CC(C)CNC(=O)COC(=O)CCC(=O)c1cccs1,-1.1,-6,-21,3%,3,
CC(C)NC(=S)NC(=O)c1ccc(-c2ccccc2)cc1,-1.6,1,9,16%,21,
Cc1cc(C(=O)NNC(=O)c2ccc(Cl)cc2Cl)c(C)o1,-0.5,-14,.,.,.,
Cn1c2c(c(=O)n(C)c1=O)C(c1ccc(Cl)cc1)C(C#N)=C(N)O2 (stereo not given),5.7,5,19,3%,13,
COCCN(C(=O)Cc1cccs1)c1nnc(-c2ccncc2)s1,-1.0,0,-4,.,3,
COC(CNS(=O)(=O)c1ccc(S(=O)(=O)NC2CC2)cc1)OC,-1.4,-4,.,.,.,
Cc1[nH]n(C)c(=O)c1C(=O)c1c(-c2c(Cl)cccc2Cl)noc1C,77*,3,.,-4%,.,
CC(CNC(=O)CCc1nnc(CCC2CCCCC2)o1)c1ccccc1 (stereo not given),4.1,-3,.,-2%,1,
Nn1c(SCC(=O)NC2CCS(=O)(=O)C2)nnc1-c1cccs1 (stereo not given),0.4,-3,.,-6%,.,
Cc1cc(C)nc(SCC(=O)Nc2ccc(S(=O)(=O)NCCO)cc2)n1,-0.8,3,-22,1%,-1,
CCN(CC)CCCNC(=O)c1c(O)c2ccccc2n(Cc2ccccc2)c1=O,4.1,.,-122,-5%,-29,
CCn1cc(/C=C(\NC(=O)c2ccccc2OC)C(=O)N2CCN(C)CC2)c2ccccc21,1.5,4,.,.,.,
O=C(Nc1ccccc1)c1ccccc1OCc1ccc(S(=O)(=O)N2CCOCC2)cc1,-1.0,-6,.,-4%,1,
O=C(NCC(=O)N(Cc1ccccc1)C(C(=O)NCC1CCCO1)c1ccccc1)c1ccco1 (stereo not given),4.0,-4,.,.,.,

# (continued)
SMILES,RecA intein inh,Mtb betalactam,YopH PTP inh,Mtb H37Rv,Arbovirus inh,others
COc1cccc(S(=O)(=O)NCC(=O)Nc2ccc(C(C)(C)C)cc2)c1,-1.0,-1,-29,8%,13,
CN=C1S/C(=C\c2cccc(Cl)c2Cl)C(=O)N1C,16,1,.,.,.,
CCOc1ccc(NC(=O)Cn2c(=O)n(CCCC(=O)NC3CCN(Cc4ccccc4)CC3)c(=O)c3ccccc32)cc1,-0.2,-1,.,.,.,
CCOc1ccc(N2CC(C(=O)NC(C)C)CC2=O)cc1 (stereo not given),-0.2,18,-21,-13%,3,
O=C(c1ccc(Br)o1)N1CCN(c2ncccn2)CC1,-0.9,-2,-31,0%,6,
O=C(CSc1ncn[nH]1)Nc1ccc(OCc2ccccc2)cc1,0.7,52,.,47%,2,
COC(=O)c1c(NC(C)=O)sc(C(=O)Nc2ccccc2F)c1C,-0.8,4,.,-11%,-5,
COCCCNc1nc2c(c(=O)n(Cc3ccc(Cl)cc3)c(=O)n2C)n1C,-1.2,-2,.,.,.,
COCCCNC(=O)CCc1nnc(Cc2ccc(-c3ccccc3)cc2)o1,3.8,1,.,9%,-1,
O=C(CCN1C(=O)/C(=C/c2ccc(Cl)cc2)SC1=S)Nc1cccc(C(=O)O)c1,3.3,-7,.,.,.,
O=C(CCS(=O)(=O)Cc1ccccc1)Nc1nc2c(s1)CCCC2,0.8,3,8,6%,-15,
COc1ccc(Cc2nnc(NC(=O)c3ccc(C)cc3)s2)cc1OC,0.2,5,.,.,.,
COc1ccc(C)cc1NC(=O)Nc1ccc(C(=O)N2CCCC2)cc1,0.1,-1,.,.,.,
COc1ccccc1NS(=O)(=O)c1cc(NC(=O)CNC(=O)c2cc(C)cc(C)c2)ccc1C,-3.2,5,-28,19%,1,
COc1ccc(CCC(=O)NCc2ccc3c(c2)OCO3)cc1,1.7,10,.,.,.,
CCCCN1CNC(=S)N(c2ccccc2OCC)C1,-0.5,3,-26,5%,3,
Nc1cc(=O)[nH]c(SCC(=O)NNC(=O)c2ccccc2)n1,-3.3,-2,.,.,.,
CCn1c(COC(=O)CNC(=O)c2cc(OC)c(OC)c(OC)c2)nc2cc(S(=O)(=O)N(C)C)ccc21,-0.2,-3,.,.,.,
Cc1ccc(NC(=O)c2cc(-c3ccccc3O)n[nH]2)cc1Cl,2.7,-4,.,.,.,
O=C(NCc1ccco1)c1nn2c(C(F)(F)F)cc(-c3cccs3)nc2c1Cl,-4.0,1,-37,-9%,-22,
Cn1cc(/C=C(\C#N)C(=O)Nc2cccc([N+](=O)[O-])c2)c2ccccc21,.,1,.,0%,2,
C/C=C(\C)C(=O)NCCN1C2=NC[C@H](Cc3ccc(O)cc3)N2C[C@@H]1Cc1ccc(OC)cc1,1.9,-15,.,-8%,-5,
FC(F)(F)c1ccccc1C1C2=C(Nc3ncnn31)c1ccccc1CCC2 (stereo not given),.,.,-15,-10%,7,
CN(C)c1oc(/C=C/c2ccccc2)nc1C#N,-129,-1,-19,7%,2,

# Next part (2 carried over from the part before).
SMILES,RecA intein inh,Mtb betalactam,YopH PTP inh,Mtb H37Rv,Arbovirus inh,others
FC(F)(F)c1ccccc1C1C2=C(Nc3ncnn31)c1ccccc1CCC2 (stereo not given),.,.,-15,-10%,7,
CN(C)c1oc(/C=C/c2ccccc2)nc1C#N,-129,-1,-19,7%,2,
COc1ccc(NC(=O)CSc2nc3ccccc3c(=O)n2C)cc1,2.6,4,.,.,.,
O=C(/C=C/c1ccc(F)cc1)NC(=S)Nc1ccccc1C(=O)NC1CCCCC1,-1.2,4,-28,.,8,
CCC(CC)C(=O)Nc1ccc(C)c(O)c1,-0.6,-1,-33,.,10,
COc1ccccc1NC(=O)NCCN1CCNC1=O,1.6,-4,.,3%,.,
O=c1[nH]c2ccc(NC(=S)Nc3ccc(Cl)cc3)cc2[nH]1,1.1,0,-3,0%,-2,
O=C(CCC1CCCN(Cc2cccc(Cl)c2)C1)NCc1ccccc1F (stereo not given),0.7,-4,.,-4%,.,
O=C(CC(=O)c1ccccc1)Nc1ccc(Cl)cc1,-0.4,-3,.,.,.,
CNC[C@H](NC[C@@H](NCCCc1ccccc1)c1ccccc1)[C@H](C)O,0.0,-8,.,.,.,
COc1ccc(N(C(=O)COc2ccccc2OC)S(=O)(=O)c2ccc(C)cc2)cc1,2.3,10,-37,2%,5,
CC1=C(C(=O)Nc2cc(-c3cccc(F)c3)[nH]n2)C2(CCCCC2)OC1=O,.,9,-27,7%,-32,
COc1ccccc1CN1CCN(C(=O)COc2ccc3ccccc3c2)CC1,1.4,10,.,.,.,
COCCn1c(-c2ccc(F)cc2)nc2cccnc21,0.0,-5,.,.,.,
O=C(O)CNC(=O)c1ccccc1Br,3.4,-2,.,2%,4,
O=C(CN1C(=O)NC2(CCc3ccccc3C2)C1=O)NCC(F)(F)F (stereo not given),0.9,-4,.,.,.,
Cc1ccc(-n2ncc3c2CC(C)(C)CC3NC(=O)CCc2ccc(=O)[nH]n2)cc1 (stereo not given),0.1,1,.,.,.,
CCCNC(=O)N1CCCC(C(N)=O)C1 (stereo not given),-0.4,-1,.,-5%,15,
O=C(Cn1c(NCCCO)nc2ccccc21)c1ccco1,-1.6,2,-26,-5%,15,
COc1cccc(CNC(=O)CSc2nnc3c(n2)[nH]c2ccc(OC)cc23)c1,-6.7,0,.,.,.,
COC(=O)C1=C(C)NC(=O)C1(NC(=O)CN1CCCC1=O)C(F)(F)F (stereo not given),.,-5,-10,-3%,-2,
O=C(NCCc1c[nH]c2ccccc12)c1ccccc1,0.6,11,.,.,.,
COc1cccc(N2C(N)=NC(N)=NC2(C)C)c1,1.1,-6,4,-6%,11,
COc1ccc(CNC(=O)CN(c2cccc([N+](=O)[O-])c2)S(C)(=O)=O)cc1,0.8,-1,.,-11%,21,
Cc1cc(-c2nnc(SCC(=O)Nc3ccc(Cl)cn3)n2N)n[nH]1,2.5,3,.,.,.,
Cc1ccc(OC(=O)c2ccncc2)c(C)c1,1.0,2,.,.,.,
